Source: PubChem BioAssay
FGF22 binding: binders of recombinant human FGF22 by thermal shift; SYPRO orange fluorescence; percent of sucrose octasulfate shift, DMSO zero; calls only at 9.99 µM; 340,000 tested, 1.5% active; AID 651658;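 active means melting point raised past a set limit in the mean and every replicate; inconclusive means no clear call; three in four hits are not shown here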
Target sequence (Q9HCT0 whole entry, looked up): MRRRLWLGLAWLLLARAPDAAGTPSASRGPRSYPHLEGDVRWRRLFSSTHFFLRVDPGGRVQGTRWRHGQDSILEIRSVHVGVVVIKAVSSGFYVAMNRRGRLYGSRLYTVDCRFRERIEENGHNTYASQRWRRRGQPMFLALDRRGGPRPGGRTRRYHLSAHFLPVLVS
MLL AF4-AF9 inh: inhibitors of human MLL-AF4/AF9 interaction; AlphaScreen, biotin-AF4 peptide binding to FLAG-AF9; inhibition, % at 10 µM; 350,000 tested, 0.47% active; AID 651704;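 active means every replicate reaching a set inhibition limit, whatever the replicate mean, cut at about 25% in these data; inconclusive means mean inhibition reaches that limit but some replicates miss it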;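 further: 0% = plate neutral control median and 100% = total signal loss; the record names both 10 and 1 µM as test concentration; the first replicate is given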
Target sequence (P42568 whole entry, looked up): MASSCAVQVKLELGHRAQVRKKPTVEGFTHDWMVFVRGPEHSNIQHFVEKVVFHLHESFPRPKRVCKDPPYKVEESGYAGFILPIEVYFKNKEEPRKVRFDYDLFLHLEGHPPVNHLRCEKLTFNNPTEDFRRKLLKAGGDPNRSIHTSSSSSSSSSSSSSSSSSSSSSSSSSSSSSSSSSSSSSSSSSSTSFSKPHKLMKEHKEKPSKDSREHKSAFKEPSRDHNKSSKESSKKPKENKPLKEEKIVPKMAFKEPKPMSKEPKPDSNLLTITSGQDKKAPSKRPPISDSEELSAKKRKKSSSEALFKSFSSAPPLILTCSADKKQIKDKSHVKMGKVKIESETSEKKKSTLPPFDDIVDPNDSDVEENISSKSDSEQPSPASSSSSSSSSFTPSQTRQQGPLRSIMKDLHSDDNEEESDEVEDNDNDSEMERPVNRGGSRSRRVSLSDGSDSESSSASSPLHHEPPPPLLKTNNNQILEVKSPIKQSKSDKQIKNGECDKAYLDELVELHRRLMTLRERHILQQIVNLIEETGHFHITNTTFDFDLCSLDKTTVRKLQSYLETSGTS
rRNA inh HTS: inhibitors of bacterial rRNA selective over humanized ribosomes | GFP signal change (wild-type ribosome), % (no concentration beside the values) | E. coli WT GFP vs humanized-ribosome RFP mutants, fluorescence, 24 h; hits give low values; DMSO median 0, no signal -100 | 350,000 tested, 1.6% active | AID 720706;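 active means significant combined selectivity score with lowered wild-type GFP, culture density cut under 30%, mutant RFP and density less affected; inactive means any of these conditions unmet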; further: one replicate is shown; some compounds called inactive have numbers as strong as hits
rRNA inh HTS OD600: second read-out of rRNA inh HTS, no call of its own (marks repeat the call); OD600 change, %; measured here: OD600 growth;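 optical density of the mix in the first replicate; 0 = DMSO median and -100 = no signal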
rRNA inh HTS RFP: also measured in rRNA inh HTS; calls as there; RFP signal change, %; measured here: RFP humanized mutant strains;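 first replicate; 0 = DMSO median and -100 = no signal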
An asterisk follows results filed as active; i = inactive; u = inconclusive; + = active, no number; & = joins results of further samples. Not all compounds are listed (hit frequency here may not be typical).

no.	Structure	rRNA inh HTS OD600	MLL AF4-AF9 inh	rRNA inh HTS RFP	FGF22 binding	rRNA inh HTS
1	C/C=C/c1ccc([C@H]2[C@@H](CO)N3CCCCN(S(=O)(=O)c4ccc(F)cc4)C[C@@H]23)cc1	-45.9	2.8	4.1	i	-24.0
2	C=CCCC1CN(Cc2ccc(OC)cc2)S(=O)(=O)c2c(Oc3ccc(C(C)C)cc3)cccc2O1 (stereo not given)	1.4&10.4	-1.5&-0.5	-0.2&1.6	i	0.5&8.7
3	CC=Cc1ccc2n(c1=O)C[C@H]1[C@H](CO)[C@@H](C(=O)NCCc3ccccc3)N(CCC)[C@@H]21 (mixture of isomers)	-6.7	1.9	3.5	i	-3.7
4	CCNC(=O)C[C@@H]1CC[C@H]2[C@@H](COC[C@@H](O)CN2C(=O)Nc2c(C)noc2C)O1	13.8	-2.5	-5.6	i	5.5
5	C[C@@H]1CN([C@@H](C)CO)C(=O)CCCn2nncc2CO[C@H]1CN(C)Cc1ccc(Cl)c(Cl)c1	6.1&-13.1	-2.5&0.6&-0.3	13.5&2.7	i	8.1&-10.5
6	COC(=O)[C@@]1(Cc2ccc(OC)cc2)[C@H]2c3cc(C(=O)N4CCCC4)n(Cc4ccc(C)o4)c3C[C@H]2CN1C(=O)c1ccccc1	9.2	5.3	9.1	i	13.9
7	C[C@@H]1CCCCO[C@@H](CN(C)Cc2ccc(C(=O)O)cc2)[C@@H](C)CN([C@@H](C)CO)C(=O)c2cc(NC(=O)Nc3ccc(C(F)(F)F)cc3)ccc2O1	3.1	0.0	2.2	+	-1.0
8	COC(=O)C[C@H]1CC[C@H](NS(=O)(=O)c2ccccc2F)[C@@H](CO)O1	4.2	1.0	0.3	i	2.9
9	C[C@H]1CCCCO[C@H](CN(C)S(=O)(=O)c2cccs2)[C@@H](C)CN([C@@H](C)CO)C(=O)c2cc(NC(=O)Nc3ccc(F)cc3)ccc2O1	-4.6	0.6	-0.5	i	1.9
10	CNC[C@H]1Oc2cc(C#Cc3ccc(OC)cc3)ccc2S(=O)(=O)N([C@H](C)CO)C[C@@H]1C	2.8	9.4	17.2	i	-2.5

The list goes on.
no.	Structure	rRNA inh HTS OD600	MLL AF4-AF9 inh	rRNA inh HTS RFP	FGF22 binding	rRNA inh HTS
11	CCCC#Cc1ccc([C@H]2[C@H](C#N)N(S(C)(=O)=O)[C@H]2CO)cc1	-4.3	-0.6	1.4	i	-0.3
12	CCC(=Cc1ccccc1OC)c1ccncc1	-74.4	6.2	-17.9	i	-52.0
13	C[C@@H]1CN([C@@H](C)CO)C(=O)c2cc(NS(=O)(=O)c3ccc(F)cc3)ccc2O[C@@H](C)CCCCO[C@@H]1CN(C)Cc1ccc(C(F)(F)F)cc1	2.6	-9.4	-6.8	i	-4.5
14	CC(=O)N1CC2(C1)[C@H](c1ccc(-c3cccc(C#N)c3)cc1)[C@@H](CO)N2CCC(F)(F)F	8.9	-2.4	0.5	i	-0.9
15	CCOc1ccc(OCCC(=O)OCC(=O)N2CCN(S(=O)(=O)c3ccc(C)cc3C)CC2)cc1	-4.7	u	0.8	i	2.0
16	CCOC(=O)C1=CNS(=O)(=O)NC1c1ccc(C(F)(F)F)cc1 (stereo not given)	-5.7	-7.4	-0.3	i	-0.1
17	O=C(C[C@@H]1C[C@H]2c3cc(NC(=O)c4ccc5c(c4)OCO5)ccc3O[C@H]2[C@H](CO)O1)NCC(F)(F)F	-6.9	-0.9	-1.4	i	-4.4
18	CO[C@@H]1CN(C)C(=O)c2cc(C#N)ccc2OCC[C@@H]2CC[C@@H](OC)[C@@H](CN(C)C(=O)[C@H]1C)O2	2.4	0.2	0.8	i	2.7
19	Cc1noc(C)c1S(=O)(=O)N(C)C[C@@H]1OCCCC[C@@H](C)Oc2ccc(NC(=O)c3ccccc3)cc2C(=O)N([C@@H](C)CO)C[C@H]1C	-5.8	-0.4	1.9	i	-2.1
20	C[C@@H]1CCCCO[C@H](CN(C)C(=O)Nc2ccc(F)cc2)[C@@H](C)CN([C@H](C)CO)C(=O)c2cc(NC(=O)Nc3ccccc3)ccc2O1	8.7	43.2*	-0.9	i	1.4

(further entries)
no.	Structure	rRNA inh HTS OD600	MLL AF4-AF9 inh	rRNA inh HTS RFP	FGF22 binding	rRNA inh HTS
21	C[C@@H]1CN([C@@H](C)CO)C(=O)c2ccccc2-c2ccccc2CO[C@H]1CN(C)Cc1cccc(C(=O)O)c1	-1.1	-3.9	-2.3	i	-0.1
22	C[C@@H]1CCCCO[C@@H](CN(C)S(=O)(=O)c2cccs2)[C@H](C)CN([C@H](C)CO)C(=O)c2cc(NC(=O)CCCN(C)C)ccc2O1	4.8	1.2	-1.0	i	0.9
23	C[C@H](CO)N1C[C@H](C)[C@H](CN(C)C(=O)Nc2ccc(C(F)(F)F)cc2)OCCCC[C@H](C)Oc2ccc(NC(=O)c3ccccc3)cc2C1=O	-1.1	-10.6	-2.7	i	2.2
24	CO[C@@H]1CN(C)C(=O)c2ccc(NS(=O)(=O)c3ccc(C)cc3)cc2OC[C@@H](C)N(Cc2nccs2)C[C@H]1C	-3.5	0.4	1.0	i	-4.1
25	Cc1cc(C)n2c(Nc3ccc4c(c3)OCCO4)c(CC(C)C)nc2n1	-7.5	5.9	0.0	i	1.6
26	CC(C)NC(=O)N(C)C[C@H]1Oc2ccc(NC(=O)NC3CCCCC3)cc2CC(=O)N([C@H](C)CO)C[C@H]1C	-2.7	-2.3	-1.2	i	0.7
27	CC(C)NC(=O)Nc1ccc2c(c1)C(=O)N([C@@H](C)CO)C[C@@H](C)[C@H](CN(C)Cc1ccc(C(F)(F)F)cc1)OCCCC[C@@H](C)O2	-1.8	4.6	-2.1	i	2.1
28	C[C@H]1CN([C@@H](C)CO)C(=O)c2cc(Br)cnc2O[C@@H]1CN(C)S(=O)(=O)c1cn(C)cn1	22.7&9.8	-1.9&-0.6	-0.4&0.0	i	14.5&4.2
29	O=C(NCCCN1CCOCC1)c1cccc(S(=O)(=O)N2CCc3ccccc32)c1	6.7	-1.5	6.4	i	6.8
30	C[C@H](CO)N1C[C@H](C)[C@H](CN(C)CC2CC2)OCCCC[C@H](C)Oc2ccc(NS(=O)(=O)c3ccc(F)cc3)cc2C1=O	0.3	3.8	0.2	i	-0.5

Single records, as listed above. Screens in order: rRNA inh HTS OD600 | MLL AF4-AF9 inh | rRNA inh HTS RFP | FGF22 binding | rRNA inh HTS
C[C@@H]1CN([C@@H](C)CO)C(=O)CCCn2nncc2CO[C@H]1CN(C)Cc1ccc(Cl)c(Cl)c1 is listed with 6.1&-13.1 | -2.5&0.6&-0.3 | 13.5&2.7 | i | 8.1&-10.5
O=C(C[C@@H]1C[C@H]2c3cc(NC(=O)c4ccc5c(c4)OCO5)ccc3O[C@H]2[C@H](CO)O1)NCC(F)(F)F is listed with -6.9 | -0.9 | -1.4 | i | -4.4
C[C@@H]1CN([C@@H](C)CO)C(=O)c2ccccc2-c2ccccc2CO[C@H]1CN(C)Cc1cccc(C(=O)O)c1 is listed with -1.1 | -3.9 | -2.3 | i | -0.1

More structures
no.	Structure	rRNA inh HTS OD600	MLL AF4-AF9 inh	rRNA inh HTS RFP	FGF22 binding	rRNA inh HTS
31	O=C(C(=O)N1CCN(C(=O)C2CCCC2)CC1)c1cccc(C(F)(F)F)c1	-2.1	-7.3	0.8	i	3.0
32	Cc1ccc(S(=O)(=O)Nc2ccc3c(c2)CC(=O)N([C@@H](C)CO)C[C@@H](C)[C@H](CN(C)Cc2ccc(C(=O)Nc4ccccc4N)cc2)O3)cc1	-3.6	2.7	3.4	i	3.2
33	Cc1noc(C)c1NC(=O)Nc1ccc2c(c1)C(=O)N([C@H](C)CO)C[C@H](C)[C@@H](CN(C)Cc1ccc(C(=O)O)cc1)O2	2.7	-1.0	-0.2	i	-0.2
34	C[C@@H]1CCCCO[C@@H](CN(C)C)[C@@H](C)CN([C@H](C)CO)C(=O)c2cc(NC(=O)CCC(F)(F)F)ccc2O1	17.8	1.7	-3.1	i	7.0
35	COc1ccccc1S(=O)(=O)N[C@H]1CC[C@H](CCNC(=O)C2CCOCC2)O[C@@H]1CO	0.6	1.0	-1.3	i	1.6
36	CCC(c1nc2ccccc2[nH]1)N(C(=O)Cc1cc(OC)cc(OC)c1)c1ccc(N2CCOCC2)cc1 (stereo not given)	-8.6	3.8	0.2	i	-7.2
37	C[C@@H]1CCCCO[C@H](CN(C)S(=O)(=O)c2ccccc2)[C@@H](C)CN([C@H](C)CO)C(=O)c2cc(N(C)C)ccc2O1	1.3	0.8	-2.0	i	0.8
38	C[C@H]1CN([C@@H](C)CO)C(=O)c2cc(NC(=O)Cc3ccccc3)ccc2O[C@@H]1CN(C)Cc1ccc2c(c1)OCO2	-3.3	1.6	-0.8	i	0.9
39	CC(C)CC#Cc1ccc2c(c1)O[C@H](CN(C)Cc1cncnc1)[C@H](C)CN([C@@H](C)CO)S2(=O)=O	-16.0	5.3	6.4	i	-9.2
40	CO[C@@H]1CN(C)C(=O)c2cc(NC(=O)Nc3c(C)noc3C)ccc2OC[C@H](C)NC[C@@H]1C	9.1	-3.0	-1.1	i	1.4

Next part.
no.	Structure	rRNA inh HTS OD600	MLL AF4-AF9 inh	rRNA inh HTS RFP	FGF22 binding	rRNA inh HTS
41	C[C@H](CO)N1C[C@H](C)[C@H](CN(C)S(C)(=O)=O)Oc2ncc(C#Cc3ccc(F)cc3)cc2C1=O	-3.8	-1.2&2.0	-2.0	i	1.4
42	CS(=O)(=O)Nc1ccc2c(c1)[C@@H]1C[C@@H](CC(=O)NCc3ccncc3)O[C@@H](CO)[C@@H]1O2	8.4	0.8	0.9	i	6.6
43	C[C@H](CO)N1C[C@H](C)[C@H](CN(C)CC2CCCCC2)Oc2ccc(NS(=O)(=O)c3cccs3)cc2CC1=O	-1.6	4.8	2.6	i	0.6
44	Cc1ccccc1S(=O)(=O)N1[C@H](C#N)[C@H](c2ccccc2)[C@@H]1CO	-11.3	1.4	-2.0	i	-3.5
45	COc1ccc(NC(=O)N(C)C[C@H]2OCCCC[C@@H](C)Oc3ccc(NC(=O)NC4CCCCC4)cc3C(=O)N([C@H](C)CO)C[C@@H]2C)cc1	-6.3	0.4	-0.3	i	-1.0
46	CNC[C@H]1Oc2ccc(NC(=O)NC(C)C)cc2CC(=O)N([C@H](C)CO)C[C@H]1C	15.1	-1.6	-1.2	i	3.9
47	CC(C)C[C@H]1CN([C@@H](Cc2ccc(O)cc2)CN2CCC[C@H]2CN2C(=O)C(=O)NC[C@@H]2Cc2ccccc2)C(=O)C(=O)N1CC1CCCCCC1	-25.4	1.9	15.1	i	-18.9
48	Cc1ccc(-c2cc(NC=O)c3ncc(-c4cccc(C(=O)N(C)C)c4)n3c2)cc1	-22.2	1.8	-0.7	i	15.9
49	C[C@H](CO)N1C[C@H](C)[C@@H](CN(C)Cc2ccc(C(=O)O)cc2)OCCCC[C@H](C)Oc2ccc(NC(=O)CCCN(C)C)cc2C1=O	-1.7	-5.8	-1.2	i	1.2
50	C[C@H](O)C#Cc1ccc([C@H]2[C@H](CO)N3CCCCN(C(=O)c4ccc5c(c4)OCO5)C[C@@H]23)cc1	11.0	2.5	0.2	i	4.8

(listing goes on)
no.	Structure	rRNA inh HTS OD600	MLL AF4-AF9 inh	rRNA inh HTS RFP	FGF22 binding	rRNA inh HTS
51	CNC(=O)C[C@H]1CC[C@@H]2[C@H](COc3ccc(NC(=O)Nc4ccccc4)cc3C(=O)N2C)O1	5.3	-1.5	-1.5	i	3.1
52	CCC(=O)Nc1ccc2c(c1)OC[C@H](C)N(CCc1ccccc1)C[C@@H](C)[C@@H](OC)CN(C)C2=O	2.6	0.4	0.6	i	-2.7
53	CCCCCCCCN1C(=O)[C@H](CC(=O)NCCCOC)C[C@@]2(C(=O)OC)CC(C)(C)CC=C12	-29.8	-5.6	11.0	i	-14.1
54	C[C@H](CO)N1C[C@H](C)[C@H](CN(C)C(=O)Nc2ccc(C(F)(F)F)cc2)Oc2ccc(NC(=O)Cc3ccccc3)cc2CC1=O	-16.9	1.5	-1.9	i	-2.8
55	COCCNc1nc2c(c(=O)n(C)c(=O)n2C)n1CCCc1ccccc1	8.0	1.1	1.4	i	8.6
56	C[C@H]1CN([C@@H](C)CO)C(=O)c2cc(C3=CCCCC3)cnc2O[C@H]1CN(C)C(=O)c1ccncc1	6.5	-1.5	-5.1	i	4.2
57	CC(C)CC#Cc1cnc2c(c1)C(=O)N([C@H](C)CO)C[C@@H](C)[C@@H](CN(C)C(=O)c1cccnc1)O2	5.8	-1.0	-4.7	i	0.7
58	Cc1noc(C)c1NC(=O)Nc1ccc2c(c1)C(=O)N([C@H](C)CO)C[C@H](C)[C@@H](CN(C)C(=O)Nc1c(C)noc1C)OCCCC[C@H](C)O2	-4.0	-2.0	-1.2	i	2.2
59	CONC(=O)c1ccc(-c2cccc3nccn23)cc1	16.1	-1.2	0.8	i	11.9
60	C[C@H]1CN([C@@H](C)CO)S(=O)(=O)c2ccc(-c3ccc(C(=O)N(C)C)cc3)cc2O[C@@H]1CN(C)C(=O)C1CCCCC1	-10.2	0.4	3.8	i	-5.1
61	CO[C@H]1CN(C)C(=O)c2ccc(NC(=O)Nc3ccccc3)cc2OC[C@@H](C)N(CC2CC2)C[C@H]1C	9.9	3.9	0.1	i	-0.5
62	CNC(=O)C[C@H]1CC[C@@H]2[C@@H](COc3ccc(NC(=O)Nc4cccc(Cl)c4)cc3C(=O)N2C)O1	-13.0	-1.0	11.4	i	-14.5
